Sa growth 42C: S. aureus growth inhibition at 42 and 30 °C, primary screen, LtaS inhibitor project, RN4220, two temperatures. OD600, 20 h, 42 °C; active compounds read low. relative growth, % (test concentration not listed). 170,000 tested, 0.53% active;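 active = growth at 42 °C up to 50% and 20 or more points under that at 30 °C, or under 10% at both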;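 note: 300 nL library stock went into each well; scaled to the means of positive and negative controls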
GIV-Gai inh: inhibitors of GIV peptide binding to Galpha-i3, primary screen, biochemical, fluorescence polarization, FITC-GIV GBA peptide, rat Galphai3. Guanine nucleotide-binding protein G(i) subunit alpha-3 (Rattus norvegicus), P08753. 90 min; active compounds read low; scaled: aluminum fluoride 0%, vehicle 100%. percent of control (FP), % (no concentration beside the values). 210,000 tested, 0.42% active;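 active = replicate mean at 85% of control or lower, very high polarization wells dropped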;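 note: wells of about 15 µL received 100 nL stock; the first replicate is given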
Target sequence (P08753 whole entry, looked up): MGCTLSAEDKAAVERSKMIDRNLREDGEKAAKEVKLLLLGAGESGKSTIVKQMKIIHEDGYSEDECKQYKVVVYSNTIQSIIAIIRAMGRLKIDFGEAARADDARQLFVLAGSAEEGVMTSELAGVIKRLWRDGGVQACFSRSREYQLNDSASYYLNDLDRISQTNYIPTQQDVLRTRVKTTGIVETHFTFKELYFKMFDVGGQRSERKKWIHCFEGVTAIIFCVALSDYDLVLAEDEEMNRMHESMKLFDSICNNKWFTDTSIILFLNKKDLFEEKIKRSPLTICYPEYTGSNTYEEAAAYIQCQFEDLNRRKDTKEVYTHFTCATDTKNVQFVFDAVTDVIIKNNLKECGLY
HCMV NEC inh: inhibitors of HCMV UL50-UL53 interaction, biochemical, HTRF; HCMV UL50-UL53 nuclear egress complex (human cytomegalovirus); inhibition, % (test concentration not listed); 190,000 tested, 0.15% active; normalized percent inhibition; AID 1918969, 2023;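 active = both replicates at 50% or more, plus weaker picks with an unusually low signal ratio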;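 note: stock transfer was 100 nL into about 20 µL; 0% = negative control wells and 100% = wells with untagged competitor protein; inactives centre near -12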
Sa growth 42C second temp: second read-out of Sa growth 42C, no call of its own (marks repeat the call); relative growth, %; measured here: growth at 30 °C;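 optical density after 20 h as mean of two plates; 100% = untreated growth and lower means inhibition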
Starred values were filed as active, the others as inactive; . = no result given; & = joins results of further samples.

# | smiles | Sa growth 42C | Sa growth 42C second temp | GIV-Gai inh | HCMV NEC inh
1 | COC(=O)Nc1nc2ccc(C(=O)c3cccs3)cc2[nH]1 | 88 | 91 | 99&99 | -70&-3&8&-14&-36&4&-1&-13
2 | Fc1ccc(-c2ccc(/C=N/n3cnnc3)[nH]2)cc1 | 87 | 99 | . | -25
3 | CCOc1cc2oc(=O)cc(C)c2cc1OCC | 97 | 84 | . | -17
4 | Cn1c(SCC(=O)c2ccc(O)cc2O)nnc1C(F)(F)F | 107 | 90 | . | -31
5 | Cc1oc(-c2ccc(Cl)cc2)nc1CN1CCC(C(=O)N2CCN(c3ccccc3)CC2)CC1 | . | . | 102 | -30
6 | Cc1ccc(NC(=O)CCNS(=O)(=O)c2ccc3c(c2)CCC(=O)N3)cc1 | 110 | 93 | 102 | .
7 | CCC(=O)Nc1cc(C)c(O)c(-c2nc3ncccc3o2)c1 | 109 | 91 | 100 | .
8 | N=C(N)SCc1cn(-c2ccccc2)nc1-c1ccc(Br)cc1 | 1.1* | -0.1* | . | -40
9 | CCOC(=O)c1c(C)c(-c2ccccc2)n(CC(=O)N2CC=C(c3ccccc3)CC2)c1C | . | . | 99 | -17
10 | COc1ccc(OC)c(NC(=O)c2cc3cc4ccc(C)cc4nc3s2)c1 | 114 | 91 | 109 | -7
11 | CCOC(=O)N1CCC2(CC1)C(C(=O)c1ccccc1)C2(C#N)C#N (stereo unspecified) | 88 | 88 | 96 | -3
12 | OCCNC(=S)NC12CC3CC(CC(C3)C1)C2 | 112 | 95 | 104 | .
13 | COc1cc(C(O)c2cc(C(F)(F)F)cc(C(F)(F)F)c2)cc(OC)c1OC (stereo unspecified) | 87 | 99 | 102 | -21
14 | CC(C)c1cnc2c(c1SCc1ccc([N+](=O)[O-])cc1)c(=O)n(C)c(=O)n2C | 98 | 87 | 106 | .
15 | CCCOC(=O)C1=C(C)NC2=C(C(=O)CC(c3ccc(Cl)cc3)C2)C1c1cc2c(cc1[N+](=O)[O-])OCO2 (stereo unspecified) | . | . | 107 | -5
16 | CCCN1CCC(NC(=O)c2cccc(Oc3ccccc3)c2)CC1 | 99 | 98 | 105 | -25
17 | O=C(c1ccc2c(c1)N(Cc1ccccc1F)C(=O)c1ccccc1S2(=O)=O)N1CCOCC1 | 92 | 88 | 101 | -14
18 | CN(C)S(=O)(=O)c1ccc2nnn(OCc3ccccc3)c2c1 | 108 | 96 | . | -21
19 | O=C1C=CC(=O)N1c1ccc(N2CCCCC2)cc1 | 86 | 56 | 103 | 7
20 | NC[C@@H]1O[C@H](C23CC4CC(CC(C4)C2)C3)Cc2c1ccc(O)c2O | . | . | 104 | -11&-38

The final 4 compounds of the section above are carried over, then new ones follow:
# | smiles | Sa growth 42C | Sa growth 42C second temp | GIV-Gai inh | HCMV NEC inh
17 | O=C(c1ccc2c(c1)N(Cc1ccccc1F)C(=O)c1ccccc1S2(=O)=O)N1CCOCC1 | 92 | 88 | 101 | -14
18 | CN(C)S(=O)(=O)c1ccc2nnn(OCc3ccccc3)c2c1 | 108 | 96 | . | -21
19 | O=C1C=CC(=O)N1c1ccc(N2CCCCC2)cc1 | 86 | 56 | 103 | 7
20 | NC[C@@H]1O[C@H](C23CC4CC(CC(C4)C2)C3)Cc2c1ccc(O)c2O | . | . | 104 | -11&-38
21 | CS(=O)(=O)Nc1nc2ccc(NC(=O)c3cc(-c4ccncc4)nc4ccccc34)cc2s1 | . | . | 106 | -48
22 | CCCN(C(=O)c1cc2c(=O)oc3ccccc3c2s1)c1cccc(Cl)c1 | 83 | 94 | 102 | -6
23 | Cc1cnc(C(=O)OCCCCN2C(=O)c3ccccc3C2=O)cn1 | 83 | 90 | . | -18
24 | CCC(CC)C(=O)NCC1(N2CCOCC2)CCCCC1 | . | . | 103 | -18
25 | CCOC(=O)COc1ccc(C2C3=C(CC(C)(C)CC3=O)OC3=C2C(=O)CC(C)(C)C3)cc1OC | . | . | 101 | -22
26 | O=C1NC(=O)C2(COC(c3ccccc3)OC2)S1 (stereo unspecified) | 90 | 94 | . | 4
27 | O=C(NC(=O)c1ccccc1)Oc1ccc(Cl)cc1 | 93 | 89 | 96 | -14
28 | CCc1cc2cc3c(cc2nc1SCCN1CCOCC1)OCO3 | 101 | 90 | 99 | -12
29 | CC(C)C(=O)N1CCN(c2ccccc2)CC1 | 99 | 113 | 98 | -6
30 | CCOC(=O)c1cc(CC)sc1NC(=O)c1ccccc1C(=O)O | 64 | 91 | 96 | 7
31 | COc1ccc2c(c1)sc(=NC(=O)CSCC(=O)Nc1nc(-c3ccccc3)cs1)n2C | 80 | 77 | 104 | .
32 | CC(=O)OC(Cn1nc(C)cc1C)c1ccccc1 (stereo unspecified) | 93 | 78 | 106 | -21
33 | O=C1NC(=S)SC1CNc1ccccc1 (stereo unspecified) | 97 | 89 | . | 9
34 | Cc1cc(F)ccc1S(=O)(=O)NCC(c1cccnc1)N1CCc2ccccc21 (stereo unspecified) | . | . | 108 | -18
35 | CC(=NC1CC1)C1=C(O)c2ccccc2C1=O | 106 | 105 | 95 | -86
36 | O=C(CNc1ccccc1Cl)N/N=C1\CCCc2ccccc21 | 92 | 99 | 100 | -12
37 | O=C(c1ccccc1F)N1CCN(c2ncnc3c2c(-c2ccccc2)cn3-c2ccccc2)CC1 | . | . | 106 | 12
38 | CC(C)NC(=O)CN1C(=O)COc2ccc(C(=O)NCc3ccc4c(c3)OCO4)cc21 | . | . | 102 | -24
39 | COc1ccc2cc3cc(C(=O)Nc4ccccc4C)oc3nc2c1 | 100 | 105 | 112 | 1
40 | CN(C)C(C(=O)O)c1ccc(Cl)cc1 (stereo unspecified) | 64 | 91 | 100 | -10

Part of the list above in order of heavy-atom count, ascending.
# | smiles | Sa growth 42C | Sa growth 42C second temp | GIV-Gai inh | HCMV NEC inh
28 | CCc1cc2cc3c(cc2nc1SCCN1CCOCC1)OCO3 | 101 | 90 | 99 | -12
34 | Cc1cc(F)ccc1S(=O)(=O)NCC(c1cccnc1)N1CCc2ccccc21 (stereo unspecified) | . | . | 108 | -18
38 | CC(C)NC(=O)CN1C(=O)COc2ccc(C(=O)NCc3ccc4c(c3)OCO4)cc21 | . | . | 102 | -24

A second format for some results above:
39	COc1ccc2cc3cc(C(=O)Nc4ccccc4C)oc3nc2c1
40	CN(C)C(C(=O)O)c1ccc(Cl)cc1 (stereo unspecified)
entry no.	39	40
Sa growth 42C	100	64
Sa growth 42C second temp	105	91
GIV-Gai inh	112	100
HCMV NEC inh	1	-10

The listing continues.
# | smiles | Sa growth 42C | Sa growth 42C second temp | GIV-Gai inh | HCMV NEC inh
41 | N#CCCn1c(SCC(=O)c2ccc(Cl)s2)nc2ccccc21 | 87 | 95 | . | -23
42 | CCOc1ccc(NC(=O)Cc2c(C(=O)O)[nH]c3ccccc23)cc1 | 83 | 83 | 99 | -21
43 | Cc1ccccc1CN1CCN(CC(=O)N(C)C2(C#N)CCCCC2)CC1 | 87 | 87 | . | -4
44 | Nc1noc2oc3nc(-c4ccncc4)cc(C(F)(F)F)c3c12 | 107 | 97 | 101 | -15
45 | O=S(=O)(Nc1ccc(-c2ccno2)cc1)c1ccc2[nH]c3c(c2c1)CCCC3 | 120 | 95 | 100 | .
46 | Cc1ncc(CO)c(/C=N/NC(N)=S)c1O | 85 | 88 | 104 | -76
47 | CCCN1CCN(C(=O)Cn2nc(N3CCN(c4ccccc4)CC3)ccc2=O)CC1 | . | . | 108 | -45
48 | CC(CC(=O)O)(C(=O)O)c1ccccc1 (stereo unspecified) | 92 | 90 | 99 | -20
49 | Cc1cc(C)cc(NC(=O)Nc2ccccc2Sc2nc3c(c(=O)n(C)c(=O)n3C)n2C)c1 | . | . | 97 | -12
50 | C/C(=C/C(=O)O)C(=O)Nc1ccccc1F | 94 | 80 | 104 | -36
51 | CC(C)(C)S(=O)(=O)c1ccc(-c2ccccc2)cc1 | 96 | 89 | . | 2
52 | O=C1OC(c2ccccc2Br)=N/C1=C\N1CCN(c2ccc([N+](=O)[O-])cc2)CC1 | . | . | 95 | -15
53 | O=S(=O)(Nc1ccc(N2CCCS2(=O)=O)cc1)c1ccc2c(c1)OCCO2 | . | . | 98 | -10
54 | NC(N)=NS(=O)(=O)c1ccccc1 | 84 | 96 | . | -14
55 | O=C(NCc1ccccc1)C(=O)NCC(c1ccco1)S(=O)(=O)c1ccccc1 (stereo unspecified) | 112 | 88 | 97 | .
56 | O=C1c2oc3ccccc3c(=O)c2C(c2cccnc2)N1c1nccs1 (stereo unspecified) | . | . | 100 | -55
57 | CS(=O)(=O)NCCc1ccc(C(=O)O)s1 | 88 | 92 | . | -2
58 | COC(=O)c1sccc1S(=O)(=O)N1CCN(C2c3ccccc3-c3ccccc32)CC1 | 111 | 88 | 99 | -21
59 | Cc1cc(C)nc(SCC2=NC(C)(C)Cc3ccccc32)n1 | 96 | 90 | 104 | 9
60 | CCOC(=O)C1CCN(c2c(NCCCN(CC)CC)c(=O)c2=O)CC1 | . | . | 99 | -34
61 | CCN(CC)CCCNC(=O)c1cc2n(n1)CC(C)(C(=O)NC1CCCC1)N(C)C2=O (stereo unspecified) | . | . | 103 | -3
62 | Cc1cc(=O)[nH]c(Nc2ccc(C)c(C)c2)n1 | . | . | 100 | 6
63 | N#CC1(c2ccccc2)CCN(S(=O)(=O)c2ccc(OC(F)(F)F)cc2)CC1 | 107 | 85 | 111 | .
64 | Fc1ccc(-c2ccc(CNCCCSc3ncccn3)o2)cc1Cl | 118 | 59 | 107 | -14
65 | COc1cc(C2C3=C(CC(C)(C)CC3=O)OC3=C2C(=O)CC(C)(C)C3)ccc1OC(=O)CNc1ccc2c(c1)OCO2 | . | . | 103 | 2
66 | COC(=O)c1ccc(COC(=O)C2CC(=O)N(Cc3ccco3)C2)cc1 (stereo unspecified) | 103 | 86 | . | 0
67 | COc1ccc(C(=O)OCc2cc(=O)n3cc(C)ccc3n2)c(OC)c1OC | 84 | 88 | . | -31
68 | NC(=O)C1CCN(C2CCN(C(=O)c3cccn4c(=O)c5ccc(Cl)cc5nc34)CC2)CC1 | 110 | 84 | 100 | .
69 | O=C(NCc1ccc2c(c1)OCO2)C1CCN(c2ccc(S(=O)(=O)N3CCCC3)cc2)CC1 | 122 | 79 | 103 | -5
70 | CC(C)(O)C(C)(C)CCO | 99 | 108 | . | 16
71 | O=C(CC1=NS(=O)(=O)c2ccccc2N1)NCCC1=CCCCC1 | 78 | 49 | 102 | -27
72 | COc1ccc(C)cc1S(=O)(=O)Nc1ccc(N2CCCS2(=O)=O)cc1 | . | . | 105 | -25
73 | C1=C(c2ccccc2)Nc2ncnn2C1c1ccc2c(c1)OCO2 (stereo unspecified) | 89 | 86 | 103 | -30
74 | COc1cccc(NC(=S)NN)c1 | 88 | 60 | 97 | .
75 | Cc1c(C)n(Cc2ccccc2)c2ncn3nc(-c4ccc(Cl)cc4)nc3c12 | . | . | 105 | -28
76 | CCOC(=O)CN1C(=O)/C(=C2\SC(=S)N(c3ccc(Br)cc3)C2=O)c2ccccc21 | . | . | 99 | -30
77 | Cc1cc(CNC(=O)CSc2nnc3ccccn23)cc(C)c1O | 99 | 97 | . | 1
78 | CC1CN(c2ccccc2O)CC(C)O1 (stereo unspecified) | 107 | 96 | 103 | -6
79 | CCOC(=O)C1CCCN(C(=O)CCC2CCCCC2)C1 (stereo unspecified) | 101 | 76 | 104 | -8
80 | O=C1c2cccc3cccc(c23)C(=O)N1NCCO | 98 | 82 | 99 | -122
81 | CCCn1c(SCc2csc(CC(=O)Nc3ccccc3C)n2)n[nH]c1=O | 82 | 90 | . | -7
82 | CC(OC(=O)c1cccs1)C(=O)N1CCc2ccccc21 (stereo unspecified) | 103 | 98 | . | 2
83 | CCOC(=O)c1cccc(NS(=O)(=O)c2ccc(-c3cnc(C4CC4)o3)cc2)c1 | 84 | 84 | 105 | .
84 | O=C(CCc1ccccc1)N(Cc1cccnc1)c1nc2ccc(F)cc2s1 | 129 | 82 | 101 | .
85 | Cc1cc(-n2c(=S)sc3c(=O)n(-c4ccc(F)cc4)c(SCC#N)nc32)ccc1Cl | 115 | 97 | 106 | .
86 | CC1(C)OC(c2ccccc2)=NC1=O | 92 | 85 | . | -2
87 | CCOc1ccc2oc(-c3ccccc3)c(C(=O)Nc3ccc(Cl)cc3)c2c1 | . | . | 110 | -5
88 | O=C1C2C3C=CC(C3)C2C(=O)N1/N=C/c1ccc(O)c(O)c1 (stereo unspecified) | 115 | 97 | 102 | -47
89 | CCNC(=O)CN1c2ccc(Br)cc2-c2ccccc2S1(=O)=O | . | . | 104 | -13
90 | CCc1nc(SCC(=O)Nc2ccc(NC(C)=O)cc2)n[nH]1 | 95 | 89 | 103 | -50
91 | Cc1ccc(CNC(=O)C2CCN(S(=O)(=O)c3cccc4nonc34)CC2)cc1 | 105 | 101 | 103 | -32
92 | CCn1ncc(/C=N/O)c1C | 94 | 87 | 111 | .
93 | Cn1c(-c2ccccc2)cnc1N | 31 | 0 | 101 | 17
94 | CCOc1cc(C#N)c(NC(=O)c2ccncc2)cc1OCC | 124 | 88 | 102 | 1
95 | CCn1c2ccccc2c2cc(/C=N/NC(=O)c3ccncc3)ccc21 | 98 | 104 | 107 | -25
96 | O=C(Nc1ccc(F)cc1F)c1ccccc1I | 106 | 77 | 108 | -5
97 | N#CC(C#N)=C1CCCN1CC(=O)c1ccccc1 | 118 | 97 | 104 | -8
98 | COCCN1CCN(Cc2ccc(C(=O)NC(C)C)cc2)C(=O)C1=O | 99 | 90 | 104 | .

Compound activity as filed in PubChem.
